ClpP mod – qHTS Assay for Activators of ClpP; AID 651965, 2013; purified B. subtilis ClpP, FRET peptide cleavage, 20 min; ATP-dependent Clp protease proteolytic subunit (Bacillus subtilis (strain 168)), P80244; Potency, µM (series often up to 57.5 µM), for the others: at the highest dose activity change, negative = active; actives 1.9% (n = 340,000); active = well fitted falling curve with a large enough effect; inconclusive = small, poorly fitted or top-dose-only effect; inactive = no such curve, though single readings can be large or run the other way; further: potency means the concentration at half of the fitted maximal effect; the source files actives as falling curves though it sought activators and does not explain the sign; nearly all actives have a fitted effect of over 65% in size; many hits overshoot -100%
Target sequence (P80244 whole entry, looked up): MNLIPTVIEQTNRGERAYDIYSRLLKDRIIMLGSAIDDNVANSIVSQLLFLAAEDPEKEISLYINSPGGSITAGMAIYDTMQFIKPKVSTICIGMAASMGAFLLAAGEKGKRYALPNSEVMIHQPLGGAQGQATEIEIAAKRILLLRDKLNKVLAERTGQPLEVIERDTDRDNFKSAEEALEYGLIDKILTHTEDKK
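FRET quenching reversal measured ClpP activation: 10 microg/mL B. subtilis ClpP at pH 8 with the FRET-FV decapeptide, read at 430 nm after 320 nm excitation. The 20-min minus 0-min signal was scaled between DMSO/no-enzyme wells and ADEP (5.8 microM final).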
TRPV1 PAM – HTS Assay for Compounds that Act as Potentiators of the Vanilloid Receptor 1. Transient receptor potential cation channel subfamily V member 1 (Homo sapiens), Q8NER1. TRPV1-expressing cells, Fluo-8 calcium influx, capsaicin EC20 potentiation; host cell line not named in the record; control for the full effect not named in the record. potentiation, % at 8.33 µM. actives 0.02% (n = 320,000). AID 540277, 2011; active means potentiation above 80%; inconclusive means 30% to 80%; inactive means below 30%; further: 0% is about no effect
Target sequence (Q8NER1 whole entry, looked up): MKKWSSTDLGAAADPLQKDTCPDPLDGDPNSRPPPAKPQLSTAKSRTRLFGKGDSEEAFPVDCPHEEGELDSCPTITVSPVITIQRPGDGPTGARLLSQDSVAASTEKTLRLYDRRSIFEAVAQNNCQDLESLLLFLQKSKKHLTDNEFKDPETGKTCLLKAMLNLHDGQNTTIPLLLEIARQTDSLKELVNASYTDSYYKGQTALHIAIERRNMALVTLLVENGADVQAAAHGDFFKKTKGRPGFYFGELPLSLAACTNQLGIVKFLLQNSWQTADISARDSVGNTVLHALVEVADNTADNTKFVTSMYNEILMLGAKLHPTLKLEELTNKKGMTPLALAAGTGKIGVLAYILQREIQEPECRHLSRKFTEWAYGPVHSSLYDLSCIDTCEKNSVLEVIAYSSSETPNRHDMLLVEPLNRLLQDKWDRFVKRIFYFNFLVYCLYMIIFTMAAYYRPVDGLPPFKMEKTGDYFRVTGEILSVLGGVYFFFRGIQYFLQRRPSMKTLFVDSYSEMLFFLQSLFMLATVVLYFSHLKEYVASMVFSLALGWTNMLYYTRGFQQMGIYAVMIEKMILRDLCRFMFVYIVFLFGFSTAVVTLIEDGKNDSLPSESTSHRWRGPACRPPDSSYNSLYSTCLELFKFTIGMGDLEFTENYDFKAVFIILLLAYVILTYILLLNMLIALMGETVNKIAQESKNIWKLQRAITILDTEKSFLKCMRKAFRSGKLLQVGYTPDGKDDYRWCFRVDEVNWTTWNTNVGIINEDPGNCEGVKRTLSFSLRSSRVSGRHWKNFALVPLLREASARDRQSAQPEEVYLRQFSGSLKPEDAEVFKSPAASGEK
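Fluo-8 calcium influx in TRPV1-expressing cells, kinetic read (ex 480/em 520 nm). Compound added and read 3 min for agonist activity, followed by capsaicin at EC20 final and 2 min further read for enhancement.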
CtBP-E1A inh – qHTS Assay for Inhibitors of the CtBP/E1A Interaction; CtBP / adenovirus E1A interaction (AlphaScreen); AlphaScreen GST-E1A/His-CtBP binding, 1536-well; hits give low values; control for the full effect not named in the record; activity change, % (no concentration beside the values); actives 0.49% (n = 340,000); AID 651724, 2012; in the data active means activity change below about -65%; inconclusive means about -30% to -65%; inactive means above about -30%; further: on the % scale 0 is the no-effect control and ±100 the full control effect; compound concentration not given in the record
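In 5 uL wells, 23 nL compound meets equimolar GST-E1A and His-CtBP (5X stock 125 nM each) for 2 h, 37 °C. Beads (5X, 50 ug/mL) then 1 h, 37 °C, dark.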
gsp ag – qHTS for Agonist of gsp, the Etiologic Mutation Responsible for Fibrous Dysplasia/McCune-Albright Syndrome: qHTS; gsp mutant cells, cAMP HTRF, 30 min; control for the full effect not named in the record; Potency, µM (top dose mostly 76.9 µM), for inactives: top-dose activation (cAMP increase), actives largely listed as activators; actives 0.13% (n = 340,000); active = well fitted activation curve with a large enough effect; inconclusive = small, poorly fitted or top-dose-only effect, or another doubt; inactive = no such curve, though single readings can be large or run the other way; cell line not stated here;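 further: phosphodiesterase inhibitor Ro 20-1724 added with compounds to block cAMP breakdown; potency means the concentration at half of the fitted maximal effect; nearly all actives have a fitted effect of over 60% in size; about a fifth of the inactives were tested at one dose only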
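Cells in DMEM/10% FBS with G418 were pretreated with compounds in DMSO plus […] (300 uM stock) for 30 min at 37C. cAMP was measured by HTRF (cAMP-d2 plus anti-cAMP antibody-K) after 30 min at room temperature.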
Sfp PPTase inh – qHTS Assay for Inhibitors of Bacillus subtilis Sfp phosphopantetheinyl transferase (PPTase). 4'-phosphopantetheinyl transferase ffp (Bacillus subtilis), Q9F4F7. Biochemical Sfp PPTase activity, qHTS. Potency, µM, inactives show max response, negative = inhibition, most hits filed as inhibitors. actives 3.5% (n = 310,000). AID 1490, 2009; active means well fitted inhibition curve with a large enough effect; inconclusive means small, poorly fitted or top-dose-only effect, or another doubt; inactive means no such curve, though single readings can be large or run the other way;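 further: the enzyme is Sfp with the accession as filed and its product quenches rhodamine fluorescence; potency means the concentration at half of the fitted maximal effect; 0% = enzyme reaction without inhibitor and -100% = no enzyme wells; top concentration of the series not given in the record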
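Fluorescence-quenching assay with 15 nM Sfp, 5 uM rhodamine-CoA and 12.5 uM BHQ-2-labelled ybbR peptide in pH 7.6 Hepes/MgCl2 buffer. Enzyme was pre-incubated with compound for 15 min at room temperature. Rate was taken from the 30-min fluorescence change (525/598 nm).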
Menin MLL FP FL – qHTS Assay for Inhibitors Targeting the Menin-MLL Interaction in MLL Related Leukemias: Competition With Fluorescein Labeled MLL-derived Peptide. FP activity change, % at 61.4 µM. AID 1766, 2009. 290,000 tested, under 10 active. Fluorescence polarization, fluorescein-MLL peptide displacement from menin; inconclusive = falling polarisation curve, or a change in total fluorescence; inactive = total fluorescence flat and polarisation flat or rising; no compound was filed as active; the % refers to the polarisation; negative = inhibition;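 further: % of control where 0% means no effect; inhibitors lower the polarisation; unlabelled MLL peptide was the positive control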
gsp antagonist – qHTS for Antagonists of gsp, the Etiologic Mutation Responsible for Fibrous Dysplasia/McCune-Albright Syndrome: qHTS | AID 624288, 2012 | Potency, µM (top dose mostly 76.9 µM), for inactives: at the top dose activity change, negative = inhibition, usual class: inhibitors | gsp-mutant cells, cAMP HTRF, 30 min; control for the full effect not named in the record | actives 0.4% (n = 340,000); active = falling curve of any shape with a large fitted effect; inconclusive = falling curve, mostly with a smaller effect; inactive = flat or rising curve; cell line not stated here;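 further: intracellular cAMP measured with PDE inhibitor Ro 20-1724 present during compound exposure; potency means the concentration at half of the fitted maximal effect; on the % scale 0 is the no-effect control and ±100 the full control effect; nearly all actives have a fitted effect of over 65% in size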
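Measurement of cellular cAMP by homogeneous time-resolved fluorescence following a 30 min compound exposure at 37C. The PDE inhibitor […] was present throughout; the assay buffer was DPBS with 0.05% BSA and 0.005% Tween 20.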
Starred values were filed as active, the others as inactive; ? = inconclusive; / = no result given; & = joins results of further samples; [ ] = remark or other dose.

compound,Sfp PPTase inh,gsp antagonist,gsp ag,CtBP-E1A inh,TRPV1 PAM,ClpP mod,Menin MLL FP FL
Cn1c(O)c(N=Nc2ccccc2[N+](=O)[O-])c2ccccc21,13%,4%,-11%[15.4 µM],-8,-4,-0.7%,4.4
COc1cc2c(cc1OC)C1=C(C#N)CN(CC(=O)O)CN1CC2,-12%,-2%,-57%[inhibitor],5,/,-25%,-0.1
Cc1cc(C)c(S(=O)(=O)N2CCC(C(=O)NCc3ccncc3)CC2)c(C)c1,-3%,3%,-4%,4,-6,-1.1%,/
N#Cc1cnn2c(C(F)(F)F)cc(-c3ccccc3)nc12,23%,2%,-13%,/,14,?,1.8
c1ccc(-c2cccc(-c3ccccc3)n2)cc1,-1%,3%,-12%,/,-7,-2.0%,4.2
CC1CC(C)CN(C(=O)C2CCN(C(=O)Nc3ccccc3)CC2)C1 (stereo not given),/,-2%,-5%,-2,0,-2.9%,/
CC(=O)Nc1ccc(S(=O)(=O)NC2(c3ccccc3)C(=O)N(C)C(=O)N(C)C2=O)cc1,/,9%,-48%[inhibitor],-3,/,2.5%,/
CCOC(=O)CSc1nc(-c2ccccc2)ns1,16µM*,-8%,-6%[15.4 µM],69,11,/,-0.4
CCOC(=O)c1c(S(=O)(=O)NCC(=O)Nc2ccc(OC)cc2)c(C)n(C)c1C,19%,1%,-7%,/,-3,1.6%,/
CCN=C(NCC)SC1CC(=O)N(c2cccc(OC)c2)C1=O (stereo not given),7%,-2%,-39%[inhibitor],3,-18,0.9%,0.3
CCOC(=O)N1CCN(c2ccc([N+](=O)[O-])cc2F)CC1C (stereo not given),10%,-15%,-3%,-19,-13,-3.3%,5.3
O=C(CN1CCN(C/C=C/c2ccccc2)CC1)NCc1ccc(Cl)cc1,15%,-7%,22%,3,10,0.5%,2.6
CCCS/C(N)=N/N=C/c1ccccc1O,-2%,-10%,-18%,-5,0,-1.9%,-4.3
O=C(Nc1ncn[nH]1)c1cccc(S(=O)(=O)N2CCOCC2)c1,-29%,3%,15%[15.4 µM],18,19,/,0.2
O=C(Cc1noc2ccccc12)Nc1ccc(Cl)cc1,6%,2%,7%,14,0,-1.5%,1.8

Entries above that bear a hit mark in Sfp PPTase inh.
SMILES	Sfp PPTase inh	gsp antagonist	gsp ag	CtBP-E1A inh	Menin MLL FP FL
CCOC(=O)CSc1nc(-c2ccccc2)ns1	16µM*	-8%	-6%[15.4 µM]	69	-0.4

Continuation:
compound,Sfp PPTase inh,gsp antagonist,gsp ag,CtBP-E1A inh,TRPV1 PAM,ClpP mod,Menin MLL FP FL
NS(=O)(=O)c1cc([N+](=O)[O-])ccc1NCc1cccnc1,20%,-4%,15%,1,-3,0.9%,5.2
O=C1CN(C(=O)CCN2CCOCC2)C(c2ccccc2)c2cc(Br)ccc2N1 (stereo not given),6%,8%,-32%[inhibitor],-1,-3,-0.8%,-4.1
O=C(CC1NC(=O)NC1=O)Nc1ccccc1 (stereo not given),6%,11%,9%,-8,-2,-2.5%,-1.2
Clc1cc(NCc2cccs2)ccc1N1CCOCC1,-6%,1%,29%,-16,-19,-1.2%,-2.0
CC#CCNCc1ccccc1,17%,5%,-27%,4,-9,0.4%,1.1
CN(C)c1ccc(/C=N/NC(=O)c2ccccn2)cc1,-19%,-25%,3%[15.4 µM],-14,-16,-1.6%,-0.2
COCCC1CCCCN1C(=O)c1cccc(OC2CCN(S(C)(=O)=O)CC2)c1 (stereo not given),5%,1%,?,-9,1,-2.1%,/
CC(=O)N[C@@H](Cc1c[nH]c2ccccc12)C(=O)NC1CCCc2ccccc21 (stereo not given in full),9%,0%,14%,-25,1,/,2.8
Cc1ccc(OCC(=O)N/N=C/c2cccc3cccnc23)cc1,-9%,-7%,-21%,-90*,14,-1.9%,/
COc1ccc(C(=O)Nc2ccc3c(c2)CCCN3C(=O)c2cccs2)c(OC)c1,-1%,-2%,-1%,/,-9,0.5%&-2.5%,/
Cc1ccc(-c2noc(-c3ccccc3C(=O)N3CCCC3)n2)cc1,-9%,-5%,26%,-3,-10,1.0%,0.8
Nc1c(C(=O)N/N=C/c2ccccc2Cl)oc2nc(-c3ccccc3)cc(-c3ccco3)c12,-14%,-1%,-7%[15.4 µM],1,28,/,?
COc1cc(CN2CCCCCC2)cc(OC)c1,12%,-3%,-11%,9,-1,/,-3.2
O=C(c1ccc2oc(CCc3ccccc3)nc2c1)N1CCC(O)CC1,19%,15%,-33%[inhibitor],2,-6,1.3%,0.0
CCN1CCN(Cc2ccc(NC(=O)c3ccc(C)c(NC(=O)c4cccc(-c5cn[nH]c(=O)c5)c4)c3)cc2C(F)(F)F)CC1,6%,7%,?,/,8,0.2%,-4.1

Single values from above.
Sfp PPTase inh with CC(=O)N[C@@H](Cc1c[nH]c2ccccc12)C(=O)NC1CCCc2ccccc21 (stereo not given in full) is entered as 9%
gsp antagonist with CN(C)c1ccc(/C=N/NC(=O)c2ccccn2)cc1 is entered as -25%

Later entries
compound,Sfp PPTase inh,gsp antagonist,gsp ag,CtBP-E1A inh,TRPV1 PAM,ClpP mod,Menin MLL FP FL
CSc1nc2ccc(S(=O)(=O)N3CCOCC3)cc2s1,16%,4%,-2%,8,7,0.1%,6.8
COc1ccc(-n2c(C)nc(=O)c(-c3ccccc3)c2C)cc1,-1%,6%,-30%,9,11,-1.1%,-0.5
CCOCCCNC(=O)C1(O)c2ccccc2NC(=O)N1c1ccc(Cl)c(Cl)c1 (stereo not given),17%,15%,6%,5,5,/,-0.9
CC(C)C(NC(=O)c1ccccc1NC(=O)c1ccccc1)C(=O)NCCCn1ccnc1 (stereo not given),11%,1%,-11%,-10,6,/,0.5
CS(=O)(=O)c1cccc(C(=O)Nc2ccc3c(c2)OCCCO3)c1,6%,4%,-4%,-4,2,-1.2%,-5.2
CCOC(=O)c1c(O)c(O)c(C(=O)OCC)n1-c1ccccc1,32µM*,4%,-11%[15.4 µM],0,-9,0.9%,-1.2
COc1ccc(CCNC(=O)C2CCN(c3nn4c(=O)cc(C)nc4s3)CC2)cc1OC,1%,-1%,14%,-5,-8,-2.9%,-3.3
CN(C)CCCn1c(SCC(=O)N2CC(=O)Nc3ccccc32)nc2ccccc2c1=O,-9%,2%,15%[15.4 µM],-2,?,-0.3%,-2.1
CC(=O)N1CCc2cc(S(=O)(=O)N3c4ccccc4CC3C)ccc21 (stereo not given),7%,0%,-8%,4,-3,0.6%,3.4
Cc1cccc(Oc2ccc(C(=O)NC3CCSC3=O)cn2)c1C (stereo not given),16%,1%,-1%,-1,-11,0.9%,0.7
COc1cc2c(cc1NC(=O)CSc1nc3cc(Cl)ccc3s1)oc1ccccc12,?,4%,3%[15.4 µM],2,2,5.6µM*,/
Cc1cccn2c(=O)c3cc(S(=O)(=O)c4ccccc4)c(=N)n(CC4CCCO4)c3nc12 (stereo not given),13%,-22%,9%[15.4 µM],2,-17,/,9.3
COc1cc2c(cc1OC)[C@@H]1Cc3ccc(OC)c(OC)c3CN1CC2,8%,-2%,13%[15.4 µM],1,-2,-0.7%,3.0
O=C(COc1ccc(Br)cc1CO)Nc1ccc(F)cc1,13%,-2%,-3%,5,3,0.2%,-4.3
O=C(COC(=O)C1CCN(S(=O)(=O)c2cccs2)CC1)c1ccccc1,17%,-15%,13%[15.4 µM],-1,-8,-2.3%,0.3
CCn1ccnc1CN1CCc2c([nH]c3ccccc23)C1C(C)(C)C (stereo not given),3%,3%,-23%,-7,-2,/,1.8
N#Cc1ccc(COc2cccnc2[N+](=O)[O-])cc1,22%,-2%,-5%,-3,-3,/,/
CCc1ccc(OCC(O)Cn2c(N3CCCCC3)nc3c2c(=O)[nH]c(=O)n3C)cc1 (stereo not given),12%,0%,?,/,9,-0.2%,0.8
CCCS(=O)(=O)N1CCCC(C(=O)NCCCOC(C)C)C1 (stereo not given),14%,6%,-6%,7,-1,-0.8%,3.6
CCOC(=O)C1CCCN(Cc2nc(N)nc(Nc3ccc(OC)cc3)n2)C1 (stereo not given),8%,-6%,-1%,-6,4,0.9%,-1.3
CCN(CC)S(=O)(=O)c1ccc(NC(=O)COc2nc3ccccc3nc2N2CCOCC2)cc1,11%,2%,-15%,-4,16,-2.9%,1.6
CC(NC(=O)COc1ccc(Br)cc1)C1CCCO1 (stereo not given),3%,4%,0%[15.4 µM],-14,-16,-5.6%,/
Cc1ccc(-n2cccn2)c([C@@H]2C[C@H]3CN(C)C(=O)[C@]34CCCN24)c1,-5%,6%,-17%[15.4 µM],-22,-6,/,-1.3
Cc1ccc(NC(=O)CCCNC(=O)c2ccc(Cl)cc2)cc1S(=O)(=O)N1CCCCC1,/,8%,0%,-1,8,-1.1%,/
CC(=O)Nc1ccc(C2C(=O)c3ccccc3C2=O)cc1,3%,4%,3%[15.4 µM],-1,7,-6.1%,-1.3
COc1ccc(/C=C/C(=O)Oc2ccc(/C=N\NC(=O)c3ccc(F)cc3)cc2)cc1,17%,-3%,13%,?,-1,-0.9%,1.7
CCC(C)(C)NCC(=O)Nc1ccc(OC(F)(F)F)cc1,-11%,18%,-40%,5,-21,-0.7%,1.1

Bioassay records (PubChem BioAssay)

Compounds as they come, and some 5.3% of all compounds hit somewhere here.
